# Compound activity: PubChem, ICCB-Longwood Screening Facility, Harvard Medical School
# Ba CapD inh: blocks the Bacillus anthracis CapD enzyme; 0.23% of 140,000 active; z-score (test concentration not listed); AID 492967; purified CapD enzyme, fluorescence intensity read-out; stronger effect = lower value; some hits fall short of the stated cut;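 active means z-score under -4 in either of two replicates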;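 further: stock transfer was 100 nL into about 40 µL; score is relative to mean and spread of the plate; one replicate is shown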
# AID504770: growth inhibitors of E. coli YBA685 in a screen for V. cholerae RctB (chromosome II replication) inhibitors | E. coli YBA685 rctB-dependent plasmid, OD600 growth, 3 h; stronger effect = lower value | z-score (concentration not given with the values) | 0.27% of 130,000 active | AID 504770;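 active means z-score under -2 on both plates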;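 further: wells of about 30 µL received 100 nL stock; score is relative to mean and SD of the test wells; the first replicate is given; strong numbers were not always called active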
# * = called active by the depositor; i = inactive; . = no result given; & = joins results of further samples.
SMILES,Ba CapD inh,AID504770
CC(C)(C)OC(=O)C(Cc1ccccc1)NC(=O)N1CCN(c2sc(S(N)(=O)=O)cc2[N+](=O)[O-])CC1 (centres undefined),-0.43,.
COc1cccc(-c2nn(-c3ccccc3)c3c2cnc2ccccc23)c1,-2.2,-0.3
CC(=O)Nc1ccc(-c2nc3ncccc3o2)cc1C,136,0.4
CSC1=NC(=Nc2ccccc2C)C2(CCC(C(C)(C)C)CC2)N1c1cccc(Cl)c1 (centres undefined),-0.43,.
O=C(OCC(=O)c1ccc[nH]1)c1ccc(-n2cnnn2)cc1,.,-0.1
CC1CCCC(n2cnc3cc(C(=O)O)ccc32)C1C (centres undefined),0.51,-0.15
Cc1occc1-c1nnc(SCC(=O)N2CCCC(C)C2)n1CC1CCCO1 (centres undefined),.,-0.5
CCOC(=O)/C(C#N)=C/Nc1nc2c(OC)cccc2s1,7.1,0.75
CC(C)CC(C(=O)Oc1ccc2c3c(c(=O)oc2c1)CCC3)N1C(=O)c2ccccc2C1=O (centres undefined),-0.34,-0.65
CN=C(Nc1ccc(C(=O)OC)cc1)c1ccccc1,.,-0.65
c1c2c(cc3sc(N4CCCC4)nc13)OCO2,.,-1.6
Cc1cc(C(=O)CSc2ncccn2)c(C)n1Cc1ccccc1,.,-0.65
COc1ccc(CN2CCC(C(=O)NCc3ccc(C)cc3)CC2)cc1,-0.68,1.2
CCOC(=O)C1=C(C)N=c2s/c(=C/c3cc(OC)c(O)cc3Br)c(=O)n2C1c1ccc2c(c1)OCO2 (centres undefined),-1.2,.
Cc1ccccc1N1CCN(C(=O)c2c(C)oc3cc4c(C(=O)N5CCN(c6ccccc6C)CC5)c(C)oc4cc23)CC1,-0.59,-3.3*
CCCS(=O)(=O)c1c(S(=O)(=O)CCC)c2ccccn2c1C(=O)c1ccc(C)cc1C,-1.8,.
O=C(COc1ccc2oc(-c3ccco3)cc(=O)c2c1)NCc1ccccc1,29,0.55
COc1ccc(C(N)=CC(=O)OC(C)(C)C)cc1,-0.58,-0.15
CCN1CCc2nc3ccccc3c(C(=O)O)c2C1,-0.68,-0.65
O=C(c1ccccc1)c1ccc(Oc2ncccn2)cc1,.,0.5

# Entries of single compounds from above.
# Entry for `Cc1ccccc1N1CCN(C(=O)c2c(C)oc3cc4c(C(=O)N5CCN(c6ccccc6C)CC5)c(C)oc4cc23)CC1` → Ba CapD inh = -0.59; AID504770 = -3.3*
# Entry for `COc1ccc(CN2CCC(C(=O)NCc3ccc(C)cc3)CC2)cc1` → Ba CapD inh = -0.68; AID504770 = 1.2

# Remaining list, next part
SMILES,Ba CapD inh,AID504770
COc1ccc(NC(=O)N2CCCC(C(N)=O)C2)cc1 (centres undefined),-0.12,-0.25
Cc1cc(C)nc(NS(=O)(=O)c2ccc(NC(=O)c3ccco3)cc2)n1,-0.065,.
NNc1ccc2nc3ccccc3c(=O)n2n1,.,0.5
Cc1ccc(-c2ccccc2C(=O)O)cc1,-0.58,2.5
Cc1ccc(-c2csc3nnc(SCC(N)=O)n23)cc1,.,1.1
c1ccc(CN2CCN(Cc3cnc(-c4ccccc4)[nH]3)CC2)cc1,0.64,-0.95
O=C(CCn1c(SCC(=O)c2ccc(F)cc2)nc2cc3c(cc2c1=O)OCO3)NCc1ccc2c(c1)OCO2,0.055,0.1
CCOC(=O)C1(c2ccccc2)CCN(CCOc2ccccc2)CC1,0.23,-0.55
CC(c1ccco1)N(C(=O)c1ccc(-c2ccccc2)cc1)c1ccccn1 (centres undefined),.,-0.8
O=C1C(=O)N(c2cccnc2)C(c2ccc(O)cc2)/C1=C(\O)c1ccc(Br)cc1 (centres undefined),.,-0.1
NC(=O)C1CCN(C(=O)c2ccc3c(=O)n(Cc4ccco4)c(SCC(=O)NCc4ccccc4Cl)nc3c2)CC1,-0.51,.
Nn1c(SCC(=O)Nc2ccc(S(=O)(=O)N3CCCC3)cc2)nnc1-c1ccccc1,.,0.45
O=C(COC(=O)Cc1cccc2ccccc12)Nc1ccccc1F,-0.12,-0.3
O=C1S/C(=C\c2cc3c(cc2Br)OCO3)C(=O)N1c1ccccc1,-0.08,.
N#C/C(=C(/O)c1ccc(Br)s1)c1nc2ccccc2[nH]1,.,0.2
CC1CN(C(=O)c2cccc(C(=O)N3CC(C)OC(C)C3)c2)CC(C)O1 (centres undefined),0.46,-0.4
CCSc1cc(CC)sc1C(=O)O,0.085,-0.55
CC1CCCC(C)N1C(=O)Cn1nc(C(=O)O)c2ccccc2c1=O (centres undefined),.,2.1
O=C(Nc1ccccc1)C1CCN(c2ccc(C(F)(F)F)cn2)CC1,0.33,-0.1
CC(Sc1nnc(-c2ccc3c(c2)OCO3)o1)C(=O)N1CCc2ccccc2C1 (centres undefined),.,-0.7
CN(C)S(=O)(=O)Nc1ccccc1,-0.41,.
COc1ccc(OC)c(S(=O)(=O)CC(O)COc2ccc(Br)cc2)c1 (centres undefined),-0.27,0.1
CC(C)CCNC(=O)Cn1nc(-c2ccccc2)ccc1=O,1.5,-0.4
O=C(Cc1c[nH]c2ccccc12)OCC(=O)c1cc2ccccc2o1,.,1.1
Cc1n[nH]c(C)c1C(C)N (centres undefined),.,0.9
CCOC(=O)c1ccc(CS(=O)(=O)c2ccc(Cl)cc2)o1,-0.65,0.2
CC1=CC(c2ccccc2)n2nc(N)nc2N1 (centres undefined),35,0.7
CC(C(=O)O)c1ccc(N2Cc3ccccc3C2=O)cc1 (centres undefined),0.2&44,0.45
C=C1C(C(=O)Nc2cccc(OC)c2)C1C(=O)Nc1cccc(OC)c1 (centres undefined),0.31,0.7
COc1cc(/C=C2\Sc3ccccc3C2=O)ccc1OCC#N,0.19,.
COc1ccc2nc3sc(C(=O)N4CCCC4)c(N)c3cc2c1,.,-1.1
Fc1ccc(/C=C/c2onc3ccccc23)cc1,1.3,-0.55
Cn1c(=O)c(=O)n(C)c2cc(S(=O)(=O)N3CCCC3C(=O)O)ccc21 (centres undefined),2.8,0
CCOCC(=O)Nc1ccc(I)cc1,-0.66,-1.1
O=C(O)CC1S/C(=N/N=C2CCCC2)NC1=O (centres undefined),.,-0.6
COc1ccc(CCNC(=O)c2nn(C)cc2Cl)cc1,-0.21,2.1
O=C(NCCN1CCCCC1)/C(=N\O)c1ccccc1,0.12,-0.45
COc1cc(NC(=O)c2sc3nc(C)nc(N4CCN(C)CC4)c3c2C)cc(OC)c1OC,-0.49,.
Cc1ccc(Cl)cc1N(C)C(=O)[C@H]1[C@@H]2C[C@@H]3[C@H]1C(=O)O[C@@H]3C2,-0.13,0.35
COc1ccc(/C=C2/SC(=S)N(CCC(=O)Nc3ccccc3)C2=O)cc1,-1,1.9

# Copied from the list.
# Under Ba CapD inh, COc1ccc(CCNC(=O)c2nn(C)cc2Cl)cc1 reads -0.21
# Under Ba CapD inh, O=C(NCCN1CCCCC1)/C(=N\O)c1ccccc1 reads 0.12

# A different layout for part of the listing above:
# Each structure is followed by: Ba CapD inh, AID504770
- O=C(Cc1c[nH]c2ccccc12)OCC(=O)c1cc2ccccc2o1
    ., 1.1
- Cc1n[nH]c(C)c1C(C)N (centres undefined)
    ., 0.9
- Cc1ccc(Cl)cc1N(C)C(=O)[C@H]1[C@@H]2C[C@@H]3[C@H]1C(=O)O[C@@H]3C2
    -0.13, 0.35
- Fc1ccc(/C=C/c2onc3ccccc23)cc1
    1.3, -0.55
- CCOC(=O)c1ccc(CS(=O)(=O)c2ccc(Cl)cc2)o1
    -0.65, 0.2

# Following part:
SMILES,Ba CapD inh,AID504770
O=C(/C=C/Oc1ccc(Cl)cc1)c1ccc(Br)cc1,0.06,0.7
COc1ccc(CNS(=O)(=O)c2ccc3[nH]c(=O)oc3c2)c(OC)c1,0,-2
CCn1cc(/C=C2/C(=O)N(c3ccccc3)N=C2C)c2ccccc21,.,-1.7
O=C(NCCCN1CCCC1)c1ccc(CSCc2cccc(Cl)c2)o1,-0.62,-0.65
CCOC(=O)C1CCN(C(=O)c2sc3ncnc(N4CCN(c5ccc(OC)cc5)CC4)c3c2C)CC1,-0.35,.
O=C(NCC1CCCO1)Nc1ccc(Cl)cc1 (centres undefined),-1.2,1.4
COc1ccccc1-n1c(O)c(C=NCC2(C)CC(O)CC(C)(C)C2)c(=O)[nH]c1=O (centres undefined),-0.02,.
CCc1ccc(N2CC34C=CC(O3)C(C(=O)OC)C4C2=O)cc1 (centres undefined),15,-0.05
COc1cccc(C2C(C#N)=C(N)Oc3n[nH]c(C(C)(C)C)c32)c1OC(=O)N1CCOCC1 (centres undefined),-0.23,.
C=CCn1c(C)cc(-c2csc(NCc3ccccc3)n2)c1C,.,-0.7
CCOC(=O)c1c(NC(=O)c2cccc(Cl)c2)sc(C(=O)Nc2cc(C(F)(F)F)ccc2Cl)c1C,2.2,.
CC1CCCCC1NC1=NCCCS1 (centres undefined),0.19,0.05
COc1cc(C(=O)NC2CCN(C)CC2)nc2ccccc12,2.7,1.4
CC(C)Cn1c(SCc2ccccc2)nnc1-c1ccncc1,-0.87,-0.4
CCc1ccccc1NC(=O)CN(C)CC(=O)NC1CC1,.,-0.65
COCCn1c(CN2C(=O)c3ccccc3C2=O)nc2cccnc21,-0.17,0.4
CN(C(=O)c1cc(-c2ccc(O)cc2)on1)c1ccccc1,-0.29,0
Cc1nn(-c2ccccc2)c(N)c1C(O)(C(F)(F)F)C(F)(F)F,.,-0.25
O=C(CSc1nnc2n1CCCN2)c1ccccc1,-0.015,-1.2
CCCNC(=O)COc1ccc(-c2nn(C)c(=O)c3ccccc23)cc1,1.3,1.1
CC12CCC(C(=O)N3CCc4ccccc4C3)(CC1=O)C2(C)C (centres undefined),0.26,-0.8
CC(C)CC(=O)Nc1cccc2c1C(=O)N(c1ccccc1)C2=O,.,0
Cc1ccc(-n2c(NN)nc3sc4c(c3c2=O)CCCC4)cc1,0.8,-0.45
O=C(c1cc2ccccc2oc1=O)N1CCN(c2ccc(N3CCOCC3)nn2)CC1,-0.015,-0.3
CCCCN1C(=O)C2ON(c3ccccc3)C(c3ccc(OC)cc3OC)C2C1=O (centres undefined),0.54,0.1
O=C(c1cc(C(=O)Nc2ccccc2)c(=O)n(-c2ccccc2)c1)c1cc(Cl)ccc1O,-0.65,-0.25
Cc1ccc(S(=O)(=O)N2CCN(CCOC(=O)c3ccccc3)CC2)cc1C,.,0.1
N#CCOC(=O)COc1ccc(Cl)cc1Cl,.,-0.1
Cc1cc2c3c([nH]c2cc1S(=O)(=O)N1CCCC1)CCCC3=O,0.4,-0.8
Cc1ccccc1N1CCN(C(=O)OC/C=C/COCc2ccccc2)CC1,-0.12,.
CC1(C)CC(CC(=O)OCCCN2CCCCC2)(c2ccccc2)CCO1 (centres undefined),-1.1,.
FC(F)(F)C1(C(F)(F)F)N=C(c2ccco2)OC(N2CCCCC2)=N1,-0.31,.
Nc1cnc(Oc2c(Cl)cccc2Cl)c(C(F)(F)F)c1,14,0
CC(C)CCNC(=O)c1ccc(CS(=O)(=O)Cc2ccc(F)cc2)o1,-0.045,-0.65
OCc1nc2ccccc2s1,-0.6,-1.2
CCN1CCCC1CNC(=O)c1cc(S(N)(=O)=O)ccc1OC (centres undefined),-0.82&-0.38,.
CCOC(=O)c1cc2cc(OCc3ccccc3)ccc2n1C(=O)c1ccccc1C(=O)O,82,1.1
CC1(c2ccc(Br)cc2)NN=Cc2nc3ccccc3c(=O)n21 (centres undefined),.,-0.35
N#Cc1ccc(Cl)cc1NC(=O)COC(=O)c1n[nH]c2ccccc12,.,-0.9
COC(=O)c1cc(C(=O)OC)cc(-n2c(/C=C\c3ccc(F)c(F)c3)nc3ccccc3c2=O)c1,-1.2,.
COc1ccc2cc(C#N)c(SCC(=O)N3c4ccccc4CC3C)nc2c1 (centres undefined),.,1.8
COc1ccc(-c2cc(C(N)=O)[nH]n2)c(F)c1,-0.075,-1.6
N#CCC(=O)N1CCCC1,0.51,0.1
O=C1CC(NC23CC4CC(CC(C4)C2)C3)C(=O)N1Cc1ccc2c(c1)OCO2 (centres undefined),-0.48,-0.85
COc1ccc(/C=C2/Sc3ccc(C(=O)NC4CCCc5ccccc54)cc3NC2=O)cc1OC (centres undefined),0.56,0.8
COc1cc(OC)nc(C2CCNCC2)n1,-0.45,.
CCOC(=O)C1=c2s/c(=C/c3ccc(C)cc3)c(=O)n2C(N)=C(C#N)C1c1ccc(C)cc1 (centres undefined),0.32,.
CC(=O)NC1CC(C)(C)N(OC(=O)c2ccccn2)C(C)(C)C1,0.62,1.5
CC1c2cccc(O)c2CC2=C(O)C3(O)C(O)=C(C(N)=O)C(=O)C(N(C)C)C3C(O)C21 (centres undefined),-4.1,-4.1*
Cc1ccc(-c2nsc(SCC(N)=O)n2)cc1,0.025,0.15
Nn1c(C2CC2)n[nH]c1=S,.,0.15
Cc1ccc(C(CNC(=O)Nc2ccccc2)N2CCN(C)CC2)cc1 (centres undefined),.,-0.95
CCOC(=O)c1c(-c2ccccc2)oc2ccc(OC)cc12,i,-0.4
Cc1c(C)c(C)c(CN2C(=O)c3ccccc3C2=O)c(C)c1C,0.82,0.6
N#Cc1sccc1CS(=O)c1ccc(Cl)cc1 (centres undefined),0.41,0.5
Cc1ccc(NC(=O)Cc2ncc(C(F)(F)F)cc2Cl)cc1Cl,-0.14,.
CCS(=O)(=O)c1ccccc1C(=O)Nc1nc2c(s1)CCCC2,.,-0.7
Cc1c(C(=O)OC(C)C(=O)Nc2ccc(S(N)(=O)=O)cc2)oc2ccc(Br)cc12 (centres undefined),.,1.4
COc1ccc(C(=O)CNc2ccccc2C#N)cc1,-0.79,-0.2

# Another view of 5 compounds above:
# Values run as follows: Ba CapD inh | AID504770
> CCOC(=O)C1=c2s/c(=C/c3ccc(C)cc3)c(=O)n2C(N)=C(C#N)C1c1ccc(C)cc1 (centres undefined)
→ 0.32 | .
> COc1ccc(C(=O)CNc2ccccc2C#N)cc1
→ -0.79 | -0.2
> Cc1ccc(NC(=O)Cc2ncc(C(F)(F)F)cc2Cl)cc1Cl
→ -0.14 | .
> COc1ccc(/C=C2/Sc3ccc(C(=O)NC4CCCc5ccccc54)cc3NC2=O)cc1OC (centres undefined)
→ 0.56 | 0.8
> COc1ccc2cc(C#N)c(SCC(=O)N3c4ccccc4CC3C)nc2c1 (centres undefined)
→ . | 1.8
